KCNQ2 pot – potentiators of rat KCNQ2 potassium channel. B-score at 10 µM. CHO-K1 KCNQ2, FluxOR thallium flux fluorescence; stronger effect = higher value. Potassium voltage-gated channel subfamily KQT member 2 (Rattus norvegicus), O88943. hit rate 0.54% among 310,000;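 active means fluorescence ratio B-score at least 3 SD of library B-scores, with initial fluorescence B-score within 3 SD, cut at about 5.3 in these data; same plate scores as AID 2156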;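 further: B-score of peak minus minimum over baseline fluorescence ratio after K+ and Tl+ stimulus; positive B-score means potentiation of KCNQ2 with more thallium influx and brighter signal; only the inactives scoring about 0 or higher are listed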
Target sequence (O88943 whole entry, looked up): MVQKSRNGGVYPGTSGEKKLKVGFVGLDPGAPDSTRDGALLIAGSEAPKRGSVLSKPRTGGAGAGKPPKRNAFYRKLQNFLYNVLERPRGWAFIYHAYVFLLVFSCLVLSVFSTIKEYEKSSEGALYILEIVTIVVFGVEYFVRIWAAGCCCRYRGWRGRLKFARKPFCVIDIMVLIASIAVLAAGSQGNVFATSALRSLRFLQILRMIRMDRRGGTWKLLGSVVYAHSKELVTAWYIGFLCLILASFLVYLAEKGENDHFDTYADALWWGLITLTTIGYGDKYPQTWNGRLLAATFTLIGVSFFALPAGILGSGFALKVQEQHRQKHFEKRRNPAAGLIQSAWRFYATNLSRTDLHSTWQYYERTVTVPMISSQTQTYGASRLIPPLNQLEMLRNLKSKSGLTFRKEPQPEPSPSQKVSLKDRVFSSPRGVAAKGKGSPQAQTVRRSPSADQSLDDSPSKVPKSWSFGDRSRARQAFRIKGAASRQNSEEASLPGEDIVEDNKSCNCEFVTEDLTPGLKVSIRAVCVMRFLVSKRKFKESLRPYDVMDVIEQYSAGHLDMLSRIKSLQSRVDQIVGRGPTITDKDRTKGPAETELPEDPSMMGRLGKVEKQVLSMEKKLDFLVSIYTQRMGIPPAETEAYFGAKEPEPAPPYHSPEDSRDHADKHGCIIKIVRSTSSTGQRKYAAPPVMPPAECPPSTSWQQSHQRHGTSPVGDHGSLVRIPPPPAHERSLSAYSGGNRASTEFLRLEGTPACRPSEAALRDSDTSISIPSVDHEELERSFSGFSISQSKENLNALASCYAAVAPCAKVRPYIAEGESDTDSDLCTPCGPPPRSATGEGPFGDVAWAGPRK
KCNQ2 pot baseline – recorded beside KCNQ2 pot, whose call it bears; B-score; compound at 10 µM; measured here: initial fluorescence intensity artifact check;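 brightness before thallium and not channel activity; 0 = typical well and far values either way flag optical interference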
The depositor's hits bear a star; nt = not tested or not shown; & = joins results of further samples. The list is partial (hit frequency here may not be typical).

KCNQ2 pot | KCNQ2 pot baseline | Molecule
1.1 | -1 | CCc1noc(C)c1C(=O)N1CC(C)OC(C)C1 (stereo not given)
0.06 | 0.33 | Cc1ccc(C)c(CN2CCC(n3nccc3NC(=O)CCCc3ccccc3)CC2)c1
1.9 | 0.89 | CCc1c(C2(O)CCCCC2)[nH]c2ccc(C(F)(F)F)cc12
0.46 | -0.09 | O=C(N/N=C/C=N/NC(=O)c1ccco1)c1ccco1
0.06 | 1.1 | COc1ccc(CC(=O)NNC(=S)NCC2CC2)cc1OC
0.02 | -0.01 | O=C(Nc1ccccc1C(F)(F)F)N1CCC(N2CCCCC2)CC1
0.11 | 0.34 | O=C(O)C1(c2ccccc2)CCN(S(=O)(=O)c2cccs2)CC1
0.08 | -0.18 | COc1cccc(-c2cn(-c3cccc(C(F)(F)F)c3)c(=S)[nH]2)c1
0.2 | -1 | O=C(Cn1cc2c(n1)CCCC2)NCCCN1CCN(c2ccccc2F)CC1
2.4 | -0.77 | O=C(CCCc1nc(-c2ccc(Cl)cc2)no1)Nc1cccnc1
1.3 | 0.01 | CC(=O)C1C(c2ccc(F)c(F)c2)NC(=O)NC1(O)C(F)(F)F (stereo not given)
0.25 | -1.6 | Cc1nn(CCCC(=O)NCc2ccc(F)cc2)c(=O)c2nccn12
0.6 | -0.67 | CN1C(=O)/C(=C/c2ccc(OCc3cccc(F)c3)cc2)NC1=S
0.77 | -0.03 | COc1cccc(CNC(=O)C2CCN(c3ncnc4c3nc3n4CCCCC3)CC2)c1
1.2 | 0.18 | O=C(CCSc1ccccc1)NC1CCCC1
1.3 | -0.73 | Cn1cnc(S(=O)(=O)N2CCN(c3ccccc3)CC2)c1
0.38 | 0.72 | COc1ccc(C(=O)Nc2cc(Cl)ccc2C(=O)O)cc1
1.5 | -0.12 | COc1ccc(NS(=O)(=O)c2cccc(Cl)c2)cc1S(=O)(=O)N1CCCCC1
0.01 | -0.12 | COc1ccc(/C=C2/C(=O)ON=C2C)cc1Cl
1.6 | -0.49 | CCc1cc(=O)oc2cc(C)cc(OC(C)C(=O)NCC(O)c3ccccc3)c12 (stereo not given)
0.01 | 0.07 | C=CCn1c(CNC(=O)c2ccccc2C)nnc1SCC(=O)NC1CCCC1
0.26 | 0.82 | Cc1c(O)c2ccccc2n(-c2ccccc2)c1=O
0.1 | 1.9 | COc1cccc(C(=O)Nc2nnc(-c3ccccc3)s2)c1
0.26 | 0.07 | Cn1c(CCNC(=O)c2ccccc2Cl)n[nH]c1=S
1.2 | -0.13 | CC(=O)Nc1nc2ccccc2n1CCN1CCOCC1

An excerpt of these results, with values under each structure.
Second line of a record: KCNQ2 pot, KCNQ2 pot baseline
> CN1C(=O)/C(=C/c2ccc(OCc3cccc(F)c3)cc2)NC1=S
→ 0.6, -0.67
> CC(=O)C1C(c2ccc(F)c(F)c2)NC(=O)NC1(O)C(F)(F)F (stereo not given)
→ 1.3, 0.01
> COc1ccc(C(=O)Nc2cc(Cl)ccc2C(=O)O)cc1
→ 0.38, 0.72
> CCc1c(C2(O)CCCCC2)[nH]c2ccc(C(F)(F)F)cc12
→ 1.9, 0.89

Entries of single compounds as entered above. Order of values: KCNQ2 pot | KCNQ2 pot baseline
Cc1nn(CCCC(=O)NCc2ccc(F)cc2)c(=O)c2nccn12 reads 0.25 | -1.6
C=CCn1c(CNC(=O)c2ccccc2C)nnc1SCC(=O)NC1CCCC1 reads 0.01 | 0.07
Cc1ccc(C)c(CN2CCC(n3nccc3NC(=O)CCCc3ccccc3)CC2)c1 reads 0.06 | 0.33
CN1C(=O)/C(=C/c2ccc(OCc3cccc(F)c3)cc2)NC1=S reads 0.6 | -0.67

(cont.)
KCNQ2 pot | KCNQ2 pot baseline | Molecule
0.09 | -1.2 | Cc1cccc(C2c3[nH]c4ccccc4c3CCN2C(=O)c2ccc(=O)[nH]c2)n1 (stereo not given)
0.98 | -0.54 | CCOC(=O)N1CCN(C(=S)Nc2ccc3nc(N4CCN(CC)CC4)cc(C)c3c2)CC1
0.53 | -0.23 | O=C(NN=C1CCCCC1)NC1CCCCC1
0.07 | -0.05 | CCOc1ccc(-c2nnn(CC(=O)NCCc3c[nH]c4ccccc34)n2)cc1
0.04 | 1.8 | Cc1n[nH]c(=S)n1/N=C/c1ccccc1OCc1ccc(Cl)cc1Cl
0.29 | 1.6 | COc1ccc(C)cc1NC(=O)CCCN1C(=S)NC(C)(C)CC1C (stereo not given)
1.5 | -0.14 | CCCNC(=O)c1onc(CSc2ccncc2)c1C(=O)NCCC
0.17 | 0.25 | Cc1ccccc1NC(=O)N1CCN(C(=O)c2ccco2)CC1
0.33 | 3.2 | COc1ccc(NC(=O)N2C3CCCC2CC(NC(=O)c2ccccc2)C3)cc1 (stereo not given)
3.7 | 0 | Nc1c(-c2cccc([N+](=O)[O-])c2)nc2ccccn12
0.36 | 1.7 | O=C(NC(Cc1ccccc1)C(=O)O)/C(=C\c1ccccc1F)NC(=O)c1ccccc1 (stereo not given)
0.29 | -0.56 | COc1ccc(NCc2cc3ccccc3[nH]c2=O)cc1
0.92 | -0.54 | COc1ccc(S(=O)(=O)N2CCOC23CCN(S(=O)(=O)c2ccc(F)cc2)CC3)cc1
0.17 | 0.26 | COc1ccccc1Nc1nc(C)cc(C)c1C(N)=O
2.8 | -0.03 | Cc1ccc(NC(=O)C2CC(=O)N(CCc3ccccc3)C2)c(C)c1 (stereo not given)
0.59 | -0.06 | CN(CC(O)COc1ccc(S(=O)(=O)N2CCOCC2)cc1)C1CCCCC1 (stereo not given)
0.11 | -0.76 | O=C(CC(Nc1ccccc1Cl)C(=O)O)c1ccccc1 (stereo not given)
11* | 0.02* | COc1ccc(NC(=O)/C(Cl)=C(/Cl)S(=O)Cc2ccc(C)cc2)cn1 (stereo not given)
1.9 | -1.8 | CCN(CC)CCCN1C(=O)C(=O)/C(=C(/O)c2ccc3c(c2)OCCO3)C1c1ccco1 (stereo not given)
0.27 | 0.45 | CCOC(=O)C1=C(N)Oc2c(c(=O)[nH]c3ccccc23)C1c1ccccc1 (stereo not given)
0.41 | 0.4 | Cc1c(OCC(=O)N[C@H](C(=O)O)c2ccccc2)ccc2c3c(c(=O)oc12)CCCC3
0.32 | 0.66 | COc1ccc(S(=O)(=O)N2CCN(Cc3ccccc3)CC2)cc1OC
0.27 | -0.56 | O=C(O)C1CC(c2ccccc2)=NO1 (stereo not given)
0.93 | -0.41 | Cc1ccccc1C(=O)NC(=S)N(CCO)Cc1ccccc1
0.69 | 0.42 | CN1CC(=O)N(CC(=O)Nc2ccc(F)cc2)c2ccccc2C1=O
1.6 | -0.77 | Cc1cc(C)n(-c2nnc(C)n2NC(=O)c2cccc(Cl)c2)n1
0.64 | 2.3 | COc1ccc(CNC(=O)C2Cc3cc(S(=O)(=O)N4CCCC4)ccc3N2C(C)=O)c(OC)c1 (stereo not given)
0.28 | -0.2 | CN1CCN(C(=O)/C(=C/c2cn(S(=O)(=O)N(C)C)c3ccccc23)NC(=O)c2ccccc2)CC1
0.67 | -0.38 | Cc1nc(N2CCCCC2)c2c(C)c(C(=O)Nc3ccc4c(c3)OCCO4)sc2n1
0.58 | 1.1 | COc1ccc(Cl)cc1NC(=S)N(Cc1ccccc1C)CC1CCC(C(=O)O)CC1 (stereo not given)
1.2 | -1 | Cc1ccc(NC(=O)CSc2n[nH]c(-c3ccncc3)n2)cc1C
0.45 | 0.13 | CC(C)S(=O)(=O)c1csc(C(=O)Nc2ccc(F)cc2)c1N
1 | 0.01 | O=C(Nc1cccc(C(=O)O)c1)/C(=C/c1cccc([N+](=O)[O-])c1)NC(=O)c1cccc(Br)c1
0.08 | -1.3 | O=S(=O)(NC1CCCCC1)c1ccc(Cl)nc1
0.02 | -0.59 | CCC(COC(=O)Nc1ccccc1)NC(=O)OC(C)C (stereo not given)
0.42 | -0.02 | Cc1ccc2c(c1)c(C)c(C)n2CC(O)CN1CCOCC1 (stereo not given)
0.16 | 0.07 | CC(C)CN(C(=O)CCC(=O)OCC(=O)N(C)c1ccccc1)c1c(N)n(CC(C)C)c(=O)[nH]c1=O
2 | nt | Cc1cc(SCC(=O)O)nc2ccccc12
2.3 | -0.15 | N/C(=N\S(=O)(=O)c1cccs1)c1ccccc1Cl
0.04 | 0.25 | CCCCn1c(CN2CCN(c3cccc(Cl)c3)CC2)nc2c1c(=O)[nH]c(=O)n2C
0.08 | -2.3 | CC(/C=C/c1cccs1)=C\C(=O)O
0.59 | 0.46 | CC(/C=N/NC(=O)c1nnn(-c2nonc2N)c1C(C)C)=C\c1ccccc1
0.75 | -0.22 | CC(=O)c1sc(NC(=O)c2cc(=O)c3ccccc3o2)nc1C
0.38 | 2.7 | O=C(Cn1cncn1)N/N=C/c1cccnc1
0.07 | 0.34 | Nc1ccc2c(c1)C(=O)N(c1cccc3ccccc13)C2=O
0.42 | 0.06 | O=c1c2ccccc2nnn1Cc1ccccc1
0.92 | -0.72 | CCc1nnc(NC(=O)CS(=O)(=O)Cc2ccccc2)s1
0.19 | -1.2 | Cc1cccc(C(C)(C)C)c1OCCCCN1CCCC1
1.2 | 2.2 | O=C(O)CC(CC(=O)Nc1ccc(-c2ccccc2)cc1)c1ccccc1 (stereo not given)
0.01 | -0.07 | Cc1ccc(NC(=O)C2CCN(S(=O)(=O)c3c(C)noc3C)CC2)cc1C

Continued.
KCNQ2 pot | KCNQ2 pot baseline | Molecule
0.38 | -0.48 | CCOc1ccccc1NC(=O)C1CCC(=O)N1S(=O)(=O)c1ccc(C)cc1 (stereo not given)
0.18 | -1.3 | CCCc1cc(=O)[nH]c(SCC(=O)N2CCN(c3ccc(F)cc3)CC2)n1
0.15 | -0.62 | C=CCN1C(=O)CSc2ccc(C(=O)NCc3cccs3)cc21
1.6 | 0 | Cc1cccc(NC(=O)CNC(=O)c2sc3ccccc3c2Cl)n1
0.02 | 0.04 | CC(C)c1nc(N2CCOCC2)c(C#N)c2c1CCC2
2.4 | -2.6 | O=S(=O)(NC1CCCCC1N1CCCCC1)c1ccc(Cl)cc1 (stereo not given)
0.04 | 0.31 | O=C1CCCN1CCCNC(=S)Nc1ccccc1
1.7 | -0.64 | O=C(CNC(=O)c1ccc(F)cc1)N/N=C/c1ccc(O)c([N+](=O)[O-])c1
0.05 | 0.01 | CN(CC(=O)NCCC1=CCCCC1)S(=O)(=O)c1ccc2c(c1)CCC(=O)N2
1.4 | 0 | Cc1cccc(NC(=O)CNC(=O)COc2cc(F)ccc2[N+](=O)[O-])c1C
2.1 | 0.1 | O=C1CC(N2CCN(Cc3ccc4c(c3)OCO4)CC2)C(=O)N1c1cccc(Cl)c1 (stereo not given)
1.6 | -1 | Cc1ccc(NC(=O)COC(=O)CN2CSCC2=O)cc1C
0.01 | 0.26 | O=C1CCN(Cc2ccc([N+](=O)[O-])cc2)CCN1[C@H](CO)c1ccccc1
1.2 | -0.73 | COc1ccc2[nH]c(C(=O)O)c(CCN3C(=O)c4ccc(C(=O)O)cc4C3=O)c2c1
0.75 | -0.61 | O=C(CCC(=O)N1CCN(c2ccc(F)cc2)CC1)N1CCN(c2ccc(F)cc2)CC1
1.4 | 0.66 | COc1ccc(NC(=S)Nc2ccc(N(C)C(C)=O)cc2)cc1
0.03 | 0.7 | CN(C)CCNC(=O)C(=O)Nc1ccc2c(c1)N(S(=O)(=O)c1cccs1)CCC2
1.1 | 1.7 | Cc1nc2oc(C(=O)c3ccc(Br)cc3)c(N)c2c2c1COC(C)(C)C2
0.1 | -1.6 | CC(=O)Nc1ccc(S(=O)(=O)N2CCN=C2SCc2ccc(F)cc2)cc1
1.1 | 0.75 | C/C(CC1CC(C)(C)OC1=O)=N/Nc1nc(-c2ccccc2)cs1 (stereo not given)
0.59 | 0.68 | Cc1nn(CC(=O)NCCc2ccc(Cl)cc2Cl)c(C)c1[N+](=O)[O-]
2.5 | -0.48 | O=C(Cn1cnc2ccccc2c1=O)Nc1ccc(N2CCOCC2)cc1
0.68 | -0.05 | Cc1c(C(=O)OCC[N+]2(C)CCCCC2)oc2ccccc12
0.89 | -1.9 | Cc1nn(C)cc1S(=O)(=O)Nc1ccccc1Br
0.17&0.68 | 3.1&0.07 | CC(Oc1ccc2c(-c3ccccc3)cc(=O)oc2c1)C(=O)NCC1CCC(C(=O)O)CC1 (stereo not given)
0.59 | 1.3 | O=S(=O)(NCc1ccc2c(c1)OCO2)c1ccc2oc3ccccc3c2c1
1.4 | -0.67 | Cc1ccc(S(=O)(=O)NC(C)(C)CSc2ncccn2)cc1
0.95 | -0.59 | COCCCNc1nc(N)c([N+](=O)[O-])c(NCC2CCCO2)n1 (stereo not given)
0.21 | -1.5 | O=C(Nc1ccc(C(=O)O)cc1)/C(=C\C=C\c1ccccc1)NC(=O)c1cccc(Br)c1
1.9 | -0.04 | COc1ccccc1NS(=O)(=O)c1cc(NC(=O)c2cnccn2)ccc1N1CCOCC1
0.61 | 0.87 | CCOc1ccccc1-n1c(COc2ccccc2)nnc1SCC(N)=O
0.01 | -1.2 | Cc1ccc(CN2CCN(CCC(C)C)C(CCO)C2)s1 (stereo not given)
1.4 | -1.1 | Cc1cccc(NC(=O)c2ccc(NCCO)c([N+](=O)[O-])c2)n1
1 | 0.39 | CCN(CC)c1ccc(NC(=O)COc2ccc(C#N)cc2)cc1S(=O)(=O)Nc1ccc(OC)cc1
0.81 | -1.8 | c1ccc(COc2ccc(OCCCN3CCCC3)cc2)cc1
0.26 | 0.83 | C[C@H](NC(=O)c1nc[nH]c1C(=O)N[C@@H](Cc1ccccc1)C(=O)OCc1ccccc1)c1ccccc1
0.64 | 0.98 | Cc1cc(S(=O)(=O)N2CCN=C2c2ccccc2)c(C)cc1Cl
0.04 | 0.46 | COc1ccc2oc(=O)c(C(C)=O)cc2c1
0.23 | 0.26 | O=C(COc1ncnc2ccc(Br)cc12)NCc1ccco1
0.57 | -1 | Cc1cc(C)cc(NC(=O)C2CCCN2S(=O)(=O)c2cccc3cccnc23)c1 (stereo not given)

Entries from the list above with a cyano group (2):
KCNQ2 pot | KCNQ2 pot baseline | Molecule
0.02 | 0.04 | CC(C)c1nc(N2CCOCC2)c(C#N)c2c1CCC2
1 | 0.39 | CCN(CC)c1ccc(NC(=O)COc2ccc(C#N)cc2)cc1S(=O)(=O)Nc1ccc(OC)cc1
